Assay outcomes: PubChem, National Center for Advancing Translational Sciences (NCATS)
Vaccinia mCherry: inhibitors of vaccinia virus infection (mCherry reporter signal). Vaccinia virus mCherry reporter infection, fluorescence; about a quarter of the inactives have no number. actives 0.63% (n = 310,000). Potency, µM (top dose mostly 36.5 µM), for inactives: at the highest dose activity change, negative = inhibition, most hits filed as inhibitors; active = well fitted inhibition curve with a large enough effect; inconclusive = small, poorly fitted or top-dose-only effect; inactive = no such curve, though single readings can be large or run the other way; tested in A549 cells; also: nearly all actives have a fitted effect of over 35% in size; inactives centre near -10
VACV Venus inh: inhibitors of vaccinia virus (Venus reporter); Vaccinia virus Venus reporter expression, fluorescence; actives 0.46% (n = 330,000); Potency, µM (titrated, usually from 36.5 µM), inactives show at the top dose activity change, negative = inhibition, most hits filed as inhibitors; active means well fitted inhibition curve with a large enough effect; inconclusive means small, poorly fitted or top-dose-only effect; inactive means no such curve, though single readings can be large or run the other way; tested in A549 cells; also: nearly all actives have a fitted effect of over 30% in size; inactives centre near -10
Numbers without * were called inactive; i = inactive; ? = inconclusive; nt = no result given; & = joins results of further samples; [ ] = another dose, or the depositor's remark. % is scaled to controls: 0 for no effect and ±100 for the full control effect; potency is read from the fitted curve at half-maximal effect.

SMILES	Vaccinia mCherry	VACV Venus inh
COc1ccc([C@@H]2[C@@H]3C(=O)N(C(C)(C)C)C(=O)[C@@H]3[C@]3(Cc4ccccc4)C(=O)N(c4ccc(C)cc4)C(=O)N23)cc1	-7%	-5%
CNC(=O)c1snnc1-c1ccccc1	nt	-30%
CC1(C)CC(=O)C2=C(C1)OC(c1ccc(O)cc1)C(C#N)=C2N (centres undefined)	i	-10%
O=C(Cn1c(=O)oc2ccccc21)N(Cc1ccccc1)C1CCS(=O)(=O)C1 (centres undefined)	-10%	-9%
O=c1cnnc(N/N=C/C2CC=CCC2)[nH]1 (centres undefined)	-12%	-14%
Cc1ccc(S(=O)(=O)N(C)CC(=O)NNC(=O)CCC(=O)c2ccc(F)cc2)cc1	-17%	-10%
Cc1ccc2c(c1)c(=O)c(C(=O)c1ccc3c(c1)OCO3)cn2Cc1ccc(Cl)cc1	-13%	-13%
Cc1ccc(N2C(=O)C(CC(=O)Nc3cccc(F)c3)N(C3CC3)C2=O)cc1 (centres undefined)	-20%	-17%
CC(=O)c1cc2c(cc1O)OC(C)(C)C=C2	-15%	-7%
NC(=O)N/N=C/c1ccc2cccc(OCc3ccccc3)c2n1	?	-11%
COc1ccc(S(=O)(=O)N2CCOCC2)cc1NC(=O)c1c(C)noc1C	i	-24%
Cc1ccc(-n2ncc3c(NCC4CCCO4)ncnc32)c(C)c1 (centres undefined)	nt	7%
CC(=O)Nc1ccc(S(=O)(=O)NCc2ccc3[nH]c(C)cc3c2)cc1	?	7%
Cc1ccc(C)c(OCC(=O)N2CCN(C(=O)c3ccco3)CC2)c1	-13%	3%
O=C(N/C(=C/C=C/c1ccccc1)C(=O)N1CCOCC1)c1ccccc1Br	-16%	-4%
CN(C)S(=O)(=O)c1ccc(C(=O)NC(=O)CSc2nnnn2C)cc1	-12%	-2%
NC(=S)N/N=C/c1cccc(O)c1O	8.9µM*	-18%
O=C(CCC(=O)c1cccs1)Nc1nc2ccccc2s1	-7%	13%
CC(CCc1ccccc1)OS(N)(=O)=O (centres undefined)	-13%	0%
COc1cccc(N2CC(C(=O)Nc3nnc(SCCC4OCCO4)s3)CC2=O)c1 (centres undefined)	i	-8%
C[C@@H]1NC(=O)[C@H](CCC(N)=O)NC(=O)c2cc([N+](=O)[O-])cc(I)c2NCC[C@@H](C(N)=O)NC1=O	i	-6%
Cc1cc(Cl)nc2ccccc12	-13%	0%
COc1cc(CN/C(C)=C(\C#N)C(N)=O)cc(OC)c1OC	-1%	-4%
O=C(NNC(=O)c1ccccc1F)c1ccc(S(=O)(=O)N2CCCC2)cc1	-15%	-9%
Cc1ccc(Cl)cc1N1CCN(C(=O)Cc2c(C(=O)O)[nH]c3ccccc23)CC1	i	-9%

A section of the results above, as a working copy:
SMILES	Vaccinia mCherry	VACV Venus inh
Cc1ccc(N2C(=O)C(CC(=O)Nc3cccc(F)c3)N(C3CC3)C2=O)cc1 (centres undefined)	-20%	-17%
CC(=O)c1cc2c(cc1O)OC(C)(C)C=C2	-15%	-7%
NC(=O)N/N=C/c1ccc2cccc(OCc3ccccc3)c2n1	?	-11%
COc1ccc(S(=O)(=O)N2CCOCC2)cc1NC(=O)c1c(C)noc1C	i	-24%
Cc1ccc(-n2ncc3c(NCC4CCCO4)ncnc32)c(C)c1 (centres undefined)	nt	7%
CC(=O)Nc1ccc(S(=O)(=O)NCc2ccc3[nH]c(C)cc3c2)cc1	?	7%
Cc1ccc(C)c(OCC(=O)N2CCN(C(=O)c3ccco3)CC2)c1	-13%	3%
O=C(N/C(=C/C=C/c1ccccc1)C(=O)N1CCOCC1)c1ccccc1Br	-16%	-4%
CN(C)S(=O)(=O)c1ccc(C(=O)NC(=O)CSc2nnnn2C)cc1	-12%	-2%
NC(=S)N/N=C/c1cccc(O)c1O	8.9µM*	-18%
O=C(CCC(=O)c1cccs1)Nc1nc2ccccc2s1	-7%	13%
CC(CCc1ccccc1)OS(N)(=O)=O (centres undefined)	-13%	0%
COc1cccc(N2CC(C(=O)Nc3nnc(SCCC4OCCO4)s3)CC2=O)c1 (centres undefined)	i	-8%
C[C@@H]1NC(=O)[C@H](CCC(N)=O)NC(=O)c2cc([N+](=O)[O-])cc(I)c2NCC[C@@H](C(N)=O)NC1=O	i	-6%
Cc1cc(Cl)nc2ccccc12	-13%	0%
COc1cc(CN/C(C)=C(\C#N)C(N)=O)cc(OC)c1OC	-1%	-4%

The results go on:
SMILES	Vaccinia mCherry	VACV Venus inh
CCOc1ncc(S(=O)(=O)N2CCN(CC)CC2)cc1C(=O)O	-18%	-3%
Fc1ccc(N2CCN(c3ncnc4onc(-c5ccc(Cl)cc5)c34)CC2)cc1	-12%	-3%
O=C(Nc1ccc(N2CCOCC2)cc1N1CCOCC1)c1ncoc1-c1cccc(F)c1	-2%	0%
CC(=O)Nc1ccc(NC(=O)COC(=O)CCc2nc3ccccc3s2)cc1	-3%	-6%
O=S(=O)(NCc1ccccc1)c1cccc2nsnc12	-2%	?
O=C(NCc1ccc(N2CCCC2=O)cc1)c1cc(COc2c(F)cccc2F)on1	?	-13%
Cc1nnc(Sc2nc3ccccc3o2)c2ccccc12	?	?
CC(=O)SCC[N+](C)(C)C	-23%	-16%
Cc1[nH]c2ccccc2c(=O)c1CN(C)Cc1ccccc1	-11%	-10%
Cc1cc(C)c(Cn2c(CCNC(=O)c3ccco3)nc3ccccc32)c(C)c1	-23%	-14%
COCCCn1c(=O)c2sccc2n2c(CCCC(=O)Nc3ccc(F)c(F)c3)nnc12	-1%	-4%
COc1cc(=O)n2c(c1C(=O)N(C)Cc1nccs1)CCN(Cc1c(F)ccc(F)c1F)CC2	-8%	-2%
COc1ccc(/C(N)=N/OC(=O)Oc2ccccc2)cc1OC	-2%	-12%
COc1cc(NC(=O)CC(C)S(=O)(=O)c2ccc3c(c2)NC(=O)CO3)cc(OC)c1OC (centres undefined)	-20%	-6%
O=C(Nc1ccccc1)c1ccccc1N=Cc1cccc(O)c1	-24%	-13%
O=C(CN1C(=O)/C(=C/c2ccccc2F)Oc2ccccc21)N1CCN(c2ccccn2)CC1	-8%	-1%
Cc1ccc(N2CC(NC(=O)C3CCCCC3)CC2=O)cc1C (centres undefined)	-4%[7.34 µM]	-6%[7.34 µM]
Fc1ccc(CSc2nc3ncc(Br)cc3[nH]2)cc1	nt	-9%
COc1ccc(Cc2c(O)nc(SCC(=O)NC(C)(C)C)[nH]c2=O)cc1	-2%	-4%
O=C(Nc1ccncc1)c1cncc(Br)c1	-4%	-7%
CCn1cc(/C=C(\NC(=O)c2ccc(OC)cc2)C(=O)NCCCn2ccnc2)c2ccccc21	?	-1%&-4%
Brc1ccc(Nc2c3c(nc4ncnn24)CCC3)cc1	-14%	?
CC1CCN(C(=O)CSc2nc3c(c(=O)n(C)c(=O)n3C)n2C)CC1	0%	6%
Cc1ccc(NC(=O)COC(=O)Cc2c(F)cccc2Cl)cc1S(=O)(=O)N1CCOCC1	i	-19%
CCCCN(C(=O)c1cc(S(=O)(=O)N2CCCCCC2)ccc1OC)c1ccccc1	-6%	-18%
The results go on.
SMILES	Vaccinia mCherry	VACV Venus inh
O=C(C1CCCC1)N1CCN(S(=O)(=O)c2cccc(Cl)c2Cl)CC1	-11%	-16%
COC(=O)c1cc(Br)c(=O)n(-c2ccccc2F)c1	-6%	3%
CC(=O)Nc1ccc(-c2ccnc3c2CC(C)(C(=O)Nc2cccc(OC(F)(F)F)c2)O3)cc1 (centres undefined)	2%	-23%
COc1ccc(NC(=O)COC(=O)Cn2cnc3ccccc3c2=O)cc1OC	i	10%
CC1CCN(c2ccc3c(c2)S(=O)(=O)c2cccc(C(=O)NC[C@@H]4CCCO4)c2C3=O)CC1	i	-16%
C[C@H](CO)N1C[C@H](C)[C@@H](CN(C)C(=O)Nc2ccc3c(c2)OCO3)Oc2c(NS(=O)(=O)c3ccccc3)cccc2C1=O	?	-10%
CCCCNc1ncnc2c1cnn2-c1ccc(C)cc1C	-13%	-12%
CC1(C)CCC(=O)N(c2ccc(OC(F)(F)F)cc2)C1=O	-18%	-11%
Cc1ccc(C(=O)Oc2ccc(Cl)c3cccnc23)cc1[N+](=O)[O-]	?	?
COc1ccc(NC(=O)COc2ccc(C(=O)OCC(=O)N(C)C3CCS(=O)(=O)C3)cc2OC)cc1 (centres undefined)	-18%	-11%
CCc1cccc(C)c1NC(=O)CN1C(=O)C2(SCC(=O)N2c2cccc(F)c2)c2ccccc21 (centres undefined)	-5%	-14%
CC(C)c1ccc(NC(=O)C2C3C=CC4(CN(CCCN5CCOCC5)C(=O)C24)O3)cc1 (centres undefined)	i	-11%
NC(=NCc1ccccc1)C(N=Nc1ccccc1)C(=O)NCc1ccccc1 (centres undefined)	-29%	-15%
Cc1ccc(NC(=O)CCn2c(=S)oc3ccccc32)cc1F	i	-3%
CCOC(=O)C1=C(O)/C(=C/c2cc(C)n(-c3ccccc3)c2C)N=C1C	i	28%
COC(=O)Cc1nc2ccccc2[nH]1	nt	-1%
CCN(CC(=O)Nc1c(F)cccc1F)C(=O)C1Cc2ccccc2CN1S(=O)(=O)CC (centres undefined)	i	-8%
Cc1cc(-n2c(/C=C/c3ccc(Br)s3)nc3ccccc3c2=O)ccc1Br	0%	-24%
Cc1cccc(-n2cnc3cc(C(=O)NC4CCCCCC4)ccc32)c1	-20%	-28%
COc1ccccc1Oc1ccc2c(c1)C(=O)N(c1ccc(C)cc1)C2=O	i	-5%
Cc1ccc(CSc2nc3cccnc3n2Cc2ccc(C(=O)NCc3cccs3)cc2)cc1	-6%	-8%
COc1ccc(OC)c(-c2cc(C(=O)O)c3cc4ccccc4cc3n2)c1	i	-13%
Cc1ccc(C)c(NC(=O)CCOc2ccccc2)c1	i	-16%&-7%
O=C(O)C1CCCCC1C(=O)NCCc1ccc(Cl)cc1 (centres undefined)	nt	2%
C/C(=N/NC(=O)c1ccc2c(c1)OCO2)c1ccc(NC(=O)C(F)(F)F)cc1	-5%	-9%
Additional results.
SMILES	Vaccinia mCherry	VACV Venus inh
CC/C(=N\NC(=O)c1ccncc1)C12CC3CC(CC(C3)C1)C2	i	-5%
COc1ccccc1C(=O)NCC(=O)NCCSc1ccc(Br)cc1	i	-5%
O=C(O)CC1NC(=O)N(c2ccc(Cl)cc2)C1=O (centres undefined)	nt	7%
CC1CCC(NC(=O)CN2CCN(S(=O)(=O)c3ccc(Br)s3)CC2)CC1 (centres undefined)	?	?
CN(CCOc1ccccc1)C(=O)c1cc([N+](=O)[O-])ccc1N1CCOCC1	-24%	-11%
Cc1nc2ccccn2c1C(=O)CSc1ccccc1Cl	nt	?
O=C(Nc1ccc(O)c(-c2nc3ccccc3o2)c1)C1(c2ccc([N+](=O)[O-])cc2)CCCC1	-2%	-6%
CC1CN(C(=O)COC(=O)CSc2ccc(C(N)=O)cc2[N+](=O)[O-])CC(C)O1 (centres undefined)	i	-7%
CCCC(=O)Oc1ccc(-c2nccc(C(OC)OC)n2)cc1	i	-5%
O=C(NCc1ccccn1)C1CCCN(Cc2cnn(-c3ccccc3)c2-n2cccc2)C1 (centres undefined)	i	-16%
O=c1c2c(nc(NCCO)n1CC1CCCCC1)-c1ccccc1CC21CCCC1	-10%	-20%
O=C(NC(=S)Nc1nc(-c2ccc([N+](=O)[O-])cc2)cs1)c1ccco1	-15%	-12%
CC(=O)OC(C(=O)Nc1nncs1)c1ccccc1 (centres undefined)	-1%	1%
O=c1ccc2cc(S(=O)(=O)N3CCN(c4ccccc4F)CC3)ccc2[nH]1	-18%	-23%
CN(CC(=O)O/N=C(\N)c1ccc(Br)cc1)S(=O)(=O)c1ccccc1	-2%	-1%
O=C(COC(=O)CNC(=O)c1ccccc1F)NCCC1=CCCCC1	i	-16%
NC(=O)c1cc[n+](CC2=C(C(=O)O)N3C(=O)C(NC(=O)C(c4ccccc4)S(=O)(=O)[O-])C3SC2)cc1 (centres undefined)	-14%	-9%
CS(=O)(=O)c1ccc(C2=C(CNC(=O)c3ccc([N+](=O)[O-])cc3)[C@H]3CC[C@@H](C2)N3CCOc2ccccc2)cc1	?	?
CC(C)Oc1ccc(CNC(=O)c2ccc(NC(=O)N3CCSc4ncccc43)cc2)cc1	-10%	-12%
Cc1ccc(-c2nc(CS(=O)CC(=O)NC3CCCC(C)C3C)c(C)o2)cc1 (centres undefined)	?	?
Fc1ccccc1Cn1nnc2c(NCc3ccccn3)ncnc21	-11%	-8%
CC1CN(c2ccc(Cl)cc2)c2nc3c(c(=O)n(CC(=O)O)c(=O)n3C)n2C1 (centres undefined)	-7%	-8%
COC(=O)[C@@]12CCCCN1[C@H](c1ccc(-c3cccc(Cl)c3)cc1)[C@H]1C(=O)N(C)C(=O)[C@H]12	i	-20%
Nc1cnc(Nc2ccc(Br)cc2)nc1N	-9%	-13%
O=C(Nc1ccc(-c2ccc3nncn3n2)cc1)c1ccc(Br)o1	-9%	11%
(list continues)
SMILES	Vaccinia mCherry	VACV Venus inh
Cc1cccc(N(C(=O)c2sc(C)nc2C)C(C(=O)NCC2CCCO2)c2ccccc2)c1 (centres undefined)	-4%	3%
COc1ccc(Nc2cc(C(=O)NCc3ccccc3OC)c3ccccc3n2)cc1	-16%	-2%
Cc1ccc(CN2CC(N3CCC(Cc4ccccc4)CC3)CS2(=O)=O)cc1 (centres undefined)	29%	-11%
COc1c(S(=O)(=O)N2CCN(C)CC2)ccc(Cl)c1Cl	-13%	4%
CCCCCCCCN1[C@@H](CC(=O)OC)c2cc(C(F)(F)F)ccc2S1(=O)=O	-19%	-11%&-8%
NC(=O)/C(=C\c1ccccc1)NC(=O)/C=C/c1ccccc1	-5%	-13%
